# Assay outcomes: PubChem BioAssay, National Center for Advancing Translational Sciences (NCATS)
# 2A StopGo – High Throughput Screening for Foot and Mouth Disease Virus Antivirals; human cells with a luciferase reporter of 2A StopGo recoding; control for the full effect not named in the record; 1.2% of 410,000 active; Potency, µM (titrated, usually from 57.9 µM), for the others: at the top dose signal change, negative = less light; active = well fitted falling curve with a large enough effect; inconclusive = small, poorly fitted or top-dose-only effect; inactive = no such curve, though single readings can be large or run the other way; tested in HEK293T cells; also: nearly all actives have a fitted effect of over 45% in size; luciferase light after 4 h
# RE007 growth inh – qHTS Assay for Inhibitors of the HIV-1 protein Vpr. S. pombe RE007 Vpr strain, BacTiter-Glo ATP luminescence, 24 h; control for the full effect not named in the record. Potency, µM (titrated, usually from 92.2 µM), inactives show at the top dose activity change, negative = less growth. 0.21% of 360,000 active. AID 651644, 2012; active = well fitted falling curve with a large enough effect; inconclusive = small, poorly fitted or top-dose-only effect; inactive = no such curve, though single readings can be large or run the other way;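 also: nearly all actives have a fitted effect of over 50% in size; the assay follows cell death caused by Vpr and the record does not say whether a fall means rescue or toxicity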
#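 Fission yeast RE007 carrying one integrated HIV-1 vpr copy, seeded at OD 0.01 in PMG+AL medium with 23 nL pinned compound. Grown 24 h at 30 degrees; viability read by BacTiter-Glo luminescence after 5 min.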
# An asterisk follows results filed as active; ? = inconclusive; & = joins results of further samples; [ ] = dose if it differs, or a comment. % is scaled to controls: 0 for no effect and ±100 for the full control effect; potency is read from the fitted curve at half-maximal effect.
SMILES,2A StopGo,RE007 growth inh
C#CCOCCOCCOCCNc1nc(N2CCN(C(=O)C([C@@H](C)CC)n3cc(C(N)COC(=O)C(F)(F)F)nn3)CC2)nc(N2CCN(C(=O)[C@H](CCCCN)n3cc(C(N)[C@H](C)CC)nn3)CC2)n1 (stereo not given in full),-14%,10%
CCCCN(C)C(=O)c1ccc(Nc2nc(C(N)Cc3ccc(C(F)(F)F)cc3)cs2)nc1 (stereo not given),-23%,12%
C[C@H]1CN(c2ccc(Br)cc2)C(=O)[C@@H]1CC(=O)Nc1ccc(Br)cc1,-26%,-1%
Cc1ccc(OCC(=O)NNC(=O)c2cc(S(=O)(=O)N(C)C)ccc2N2CCCC2)cc1,-18%,2%
COc1ccc(C(O)c2nc(-c3ccc(C)c(C)c3)cs2)cc1 (stereo not given),-1%,2%[18.4 µM]
Cc1ccc(S(=O)(=O)N2CCN(C(=O)COC(=O)/C=C/c3ccc(C(F)(F)F)cc3)CC2)c(C)c1,-13%,8%
CCCNC(=O)c1cc(C2CCCCN2C(=O)CCc2ccccc2)on1 (stereo not given),-5%,6%
COc1cccc(C(O)c2nc(-c3cccc(C(C)C)c3)cs2)c1 (stereo not given),-21%,?
COc1ccc(CC(N)c2csc(Nc3ccc(C(=O)c4ccccc4)cc3)n2)cc1 (stereo not given),-11%,-5%
OC(Cc1cccc(Br)c1)c1ncc(-c2ccccc2C(F)(F)F)[nH]1 (stereo not given),-2%,-7%[18.4 µM]
Cc1cccc(NC(=O)CNC(=O)[C@H]2O[C@@H](n3ccc(=O)[nH]c3=O)[C@H](O)[C@@H]2O)c1C,-12%,6%
CS(=O)(=O)Nc1cccc(NC(=O)c2ccc(-c3ccc(F)c(F)c3)c3ccoc23)c1,-10%,-13%
CCc1nc2ccc(C(=O)Nc3ccc4c(c3)OCC(=O)N4)cn2c1N(C)C(=O)Cc1ccccc1,-12%,-16%[18.4 µM]
CCC(=O)N1Cc2cc(C(=O)Nc3nccs3)nc(-c3cccc(-c4ccccc4OC)c3)c2[C@H]1CCO,?,4%
CC(C)(C)c1ccc(S(=O)(=O)NC(=O)C2(C)CCN2C(=O)Cc2ccc(Cl)cc2Cl)cc1 (stereo not given),-12%,4%
COC(=O)c1ccc2nc(-c3ccco3)c(Cc3ccc(C)cc3)n2c1,-3%,-16%
CC(C)NC(=O)c1cc(C2CCCCN2C(=O)c2ccccc2)on1 (stereo not given),-15%,-16%
C[C@@H]1CN([C@@H](C)CO)C(=O)CCCn2nncc2CO[C@H]1CN(C)Cc1cccc2c1OCCCO2,-3%,-4%
CC1(C)C2CC[C@]3(C)C(CC=C4[C@@H]5C[C@@](C)(CO)CC[C@]5(C(=O)O)CC[C@]43C)[C@@]2(C)CC[C@@H]1O (stereo not given in full),0%,-2%
CC(=O)NC(c1ccccc1)c1nc(-c2ccc(Cl)cc2)cs1 (stereo not given),-26%,7%[18.4 µM]
CCNC(=O)C1(C)CCN(C(=O)c2ccc(OC)cc2)C1 (stereo not given),10%,6%
CC(C)(C)S(=O)N1Cc2cc(CO)ccc2[C@@H]1CCO (stereo not given in full),-12%,-5%
COc1ccc(S(=O)(=O)N(C)C[C@H]2OCCCC[C@@H](C)Oc3ccc(N(C)C)cc3C(=O)N([C@H](C)CO)C[C@@H]2C)cc1,-1%,-4%
COC(=O)c1cn(C(=O)c2ccc3c(c2)OCO3)c2ccccc12,-21%,-28%
CCOC(=O)[C@]12Cc3cc(OC)ccc3[C@H]1N(C(C)C)C(=O)c1cc(OC)ccc12,16µM*,-26%

# Next part:
SMILES,2A StopGo,RE007 growth inh
O=C(NC1CCCCC1)C(C1CC1)N1CCc2ccccc2C1 (stereo not given),-8%,-6%
Cc1cc(C)n2c(NCc3ccccc3)c(CC(C)C)nc2n1,-11%,?
Cc1ccc(C)c(C(Nc2ccccc2)c2ccc3ccc(C)nc3c2O)c1 (stereo not given),6%,17%
Nc1ccc(CC(N)c2csc(Nc3cc(Oc4ccccc4)ncn3)n2)cc1 (stereo not given),-25%,-2%
Cc1cccc(C)c1-n1nnnc1C(c1ccnc2ccccc12)N1CCN(CCN(C)C)CC1 (stereo not given),-11%,-24%
Cc1ccc2c(c1)CCO[C@@]21O[C@H](CCO)C[C@H](O)[C@H]1O,-24%,9%
CN1Cc2cnnn2-c2ccccc2C1C#N (stereo not given),-18%,-4%
COC(=O)c1c(-c2ccccc2)[nH]c(-c2nccc3ccccc23)c1C(=O)OC,16%,6%
CC1(C)CC[C@]2(C)CC[C@]3(C)C4C[C@@H]5OO[C@@]6(O5)C(CCCC6(C)C)[C@]4(C)CC[C@@]3(C)C2C1 (stereo not given in full),-20%,1%
Cc1ccc([C@H]2N[C@]3(CCCN(Cc4ccccc4)C3=O)[C@H]3C(=O)N(Cc4ccccc4)C(=O)[C@@H]23)cc1,-15%,4%
CCCCNC(=O)C1(C)CCN1Cc1ccc(C(=O)OCC)cc1 (stereo not given),-11%,-2%
COCCN1C(=O)CCC1(C)C(=O)NC1CCCC1 (stereo not given),-27%,-5%
COc1cccc(C=C(C#N)C(=O)c2ccccc2)c1,-2%,18%[18.4 µM]
O=C(NCC1CC1)c1onc(CSc2ccccc2)c1C(=O)NCC1CC1,-13%,-5%
COc1ccccc1CNC(=O)C1CC2Cn3c(nc4cc(Cl)c(Cl)cc43)C2N1C (stereo not given),?,-6%
Cc1noc(C)c1S(=O)(=O)N(C)C[C@H]1OCCCC[C@@H](C)Oc2ccc(NS(=O)(=O)c3cn(C)cn3)cc2C(=O)N([C@H](C)CO)C[C@@H]1C,-20%,4%
Cc1cccc(S(=O)(=O)NC(=O)C2(C)CCN2C(=O)c2c(C)noc2C)c1 (stereo not given),-2%,3%
O=c1ccn([C@@H]2O[C@H](CNS(=O)(=O)c3csc(-c4ccno4)c3)[C@@H](O)[C@H]2O)c(=O)[nH]1,0%,2%
O=C(/C=C/[C@H]1O[C@@H](n2ccc(=O)[nH]c2=O)[C@H](O)[C@@H]1O)N[C@@H](Cc1ccccc1)C(=O)O,-18%,1%
CC(C(=O)N1CCCC1)N(c1ccc(Cl)cc1)S(C)(=O)=O (stereo not given),-10%,-5%
CC(=O)Nc1cccc(OCc2ccc([N+](=O)[O-])cc2)c1,57%[activator],-2%
COCCNC(=O)c1ccc(N2CC3CC(C2)c2cccc(=O)n2C3)c(NC(=O)c2ccc(C(C)(C)C)cc2)c1 (stereo not given),0%,-5%
O=C(Nc1nnc([C@@H]2C[C@H](O)[C@@H](CO)O2)s1)NC(c1ccccc1)c1ccccc1,-9%,16%
COc1ccc(-c2ccc(C(=O)NCC(C)C)c3occc23)c(C)c1,0%,25%
CCCCNC(=O)C1(C)CCN1C(=O)c1ccccc1Br (stereo not given),-12%,2%

# Next entries
SMILES,2A StopGo,RE007 growth inh
N#CC1C(=O)NC(=O)C(C#N)C12CCCC2 (stereo not given),-15%,7%[18.4 µM]
C=CCN1CCN(c2ccncc2S(=O)(=O)N2CCN(C)CC2)CC1,0%,-21%
O=c1[nH]c(SCCc2ccccc2)nc2c1CCC2,-17%,4%
CO[C@@H]1CN(C)C(=O)c2cc(NS(=O)(=O)c3ccc(C)cc3)ccc2OC[C@H](C)N(Cc2nccs2)C[C@H]1C,-14%,8%
C=Cc1ccc(CC2(C)C(=O)Nc3c(Cl)cccc32)cc1 (stereo not given),-22%,-10%
COc1cccc(NC(=O)C2(C)CCCN2C(=O)C(C)C)c1OC (stereo not given),-20%,3%
COc1cc(CN2C[C@@H](CO)O[C@@H](n3cnc4c(N(C)C)ncnc43)C2)cc(OC)c1OC,-14%,-2%[18.4 µM]
O=C(Nc1ccc2c(c1)OCO2)c1cc(C2CCCCN2C(=O)c2ccccc2)on1 (stereo not given),-6%,17%
OC[C@@H]1CN(Cc2cccs2)C[C@H](n2cnc3c(N4CCN(c5ccccc5)CC4)ncnc32)O1,?,5%
COc1ccccc1CNC(=O)C1(C)CCCCN1C (stereo not given),-13%,-11%
COc1cccc(C2=Cc3ccc(F)cc3C(CC(C)=O)N2c2ccc(C#CC3(O)CCCCC3)cc2)c1 (stereo not given),-18%,1%
CC(C)(C(=O)N1CCC1(C)C(=O)NS(=O)(=O)c1cccc(C#N)c1)c1ccccc1 (stereo not given),21%,-11%[18.4 µM]
Cc1cc(C(=O)N2CCC2(C)C(=O)Nc2cc(C(C)(C)C)nn2C)nn1C (stereo not given),-8%,4%[18.4 µM]
Cc1ccccc1C(=O)N1CCC2CC1c1cc(-c3ccc(F)cc3)ccc12 (stereo not given),32µM*,4%
O=C(NCc1ccc(F)cc1)c1cc(C2CCCCN2S(=O)(=O)Cc2ccccc2)on1 (stereo not given),-2%,2%
COc1ccc(CNC(=O)c2ccc(-c3c(C)noc3C)c3ccoc23)cc1OC,-29%,-10%
COc1ccc(C(=O)Nc2ccc(O)c3ccccc23)cc1,28%,-14%
Cn1c2c(c(=O)n(C)c1=O)CS(=O)c1ccccc1N2 (stereo not given),-12%,5%[18.4 µM]
CCN(CC)C(=O)C1=C(C)N(Cc2ccc(C(C)(C)C)cc2)C(=O)C(CC(=O)NC2CCCCC2)C1 (stereo not given),-17%,-2%
O=C(NCc1ccccc1)/C(=C\c1cccc([N+](=O)[O-])c1)NC(=O)c1ccco1,-22%,-4%
COc1ccc(-c2csc(C(O)c3ccc(OC)cc3)n2)cc1 (stereo not given),-25%,9%
COc1ccccc1CNC(=O)Nc1nc(C(N)Cc2ccc(Cl)cc2)cs1 (stereo not given),-16%,14%
COC(=O)[C@H]1C[C@@]2(O)CN(S(=O)(=O)c3ccc(C)cc3)C[C@@]2(OC(=O)NC2CC2)C[C@H]1C(=O)OC,-8%,13%
CC1(C(=O)Nc2ccc3c(c2)OCO3)CCN1C(=O)C1(c2ccc(Cl)cc2)CC1 (stereo not given),2%,-1%[18.4 µM]
COc1ccc(NC(=O)c2cc(-c3cc(Cl)ccc3C)n[nH]2)cn1,-27%,2%

# 12 of these compounds, set out differently.
# Value order: 2A StopGo, RE007 growth inh
CO[C@@H]1CN(C)C(=O)c2cc(NS(=O)(=O)c3ccc(C)cc3)ccc2OC[C@H](C)N(Cc2nccs2)C[C@H]1C
→ -14%, 8%
C=Cc1ccc(CC2(C)C(=O)Nc3c(Cl)cccc32)cc1 (stereo not given)
→ -22%, -10%
COc1cccc(NC(=O)C2(C)CCCN2C(=O)C(C)C)c1OC (stereo not given)
→ -20%, 3%
COc1cc(CN2C[C@@H](CO)O[C@@H](n3cnc4c(N(C)C)ncnc43)C2)cc(OC)c1OC
→ -14%, -2%[18.4 µM]
O=C(Nc1ccc2c(c1)OCO2)c1cc(C2CCCCN2C(=O)c2ccccc2)on1 (stereo not given)
→ -6%, 17%
OC[C@@H]1CN(Cc2cccs2)C[C@H](n2cnc3c(N4CCN(c5ccccc5)CC4)ncnc32)O1
→ ?, 5%
COc1ccccc1CNC(=O)C1(C)CCCCN1C (stereo not given)
→ -13%, -11%
COc1cccc(C2=Cc3ccc(F)cc3C(CC(C)=O)N2c2ccc(C#CC3(O)CCCCC3)cc2)c1 (stereo not given)
→ -18%, 1%
CC(C)(C(=O)N1CCC1(C)C(=O)NS(=O)(=O)c1cccc(C#N)c1)c1ccccc1 (stereo not given)
→ 21%, -11%[18.4 µM]
Cc1cc(C(=O)N2CCC2(C)C(=O)Nc2cc(C(C)(C)C)nn2C)nn1C (stereo not given)
→ -8%, 4%[18.4 µM]
Cc1ccccc1C(=O)N1CCC2CC1c1cc(-c3ccc(F)cc3)ccc12 (stereo not given)
→ 32µM*, 4%
O=C(NCc1ccc(F)cc1)c1cc(C2CCCCN2S(=O)(=O)Cc2ccccc2)on1 (stereo not given)
→ -2%, 2%

# Sorted by molecular weight (rising): some entries from above.
SMILES,2A StopGo,RE007 growth inh
CCCCNC(=O)C1(C)CCN1Cc1ccc(C(=O)OCC)cc1 (stereo not given),-11%,-2%
COc1cccc(C(O)c2nc(-c3cccc(C(C)C)c3)cs2)c1 (stereo not given),-21%,?
CC1(C)C2CC[C@]3(C)C(CC=C4[C@@H]5C[C@@](C)(CO)CC[C@]5(C(=O)O)CC[C@]43C)[C@@]2(C)CC[C@@H]1O (stereo not given in full),0%,-2%

# Going on with the list:
SMILES,2A StopGo,RE007 growth inh
CC(C)Oc1cccc(NC(=O)C2(C)CCCN(C)C2)c1 (stereo not given),-7%,6%
CC1(C(=O)NS(=O)(=O)c2cccc(C#N)c2)CCN1C(=O)c1ccco1 (stereo not given),-8%,5%
N[C@H]1C(O)O[C@H](CO)[C@@H](O)[C@@H]1O (stereo not given in full),-19%&-12%,-6%[18.4 µM]
O=C(O)c1ccc(CN2C[C@@H](CO)O[C@@H](n3cnc4c(NCc5ccc(F)cc5)ncnc43)C2)cc1,-8%,2%
COc1cccc(-c2cc(N3CCN(C(=O)c4ccoc4)CC3)n3nc(-c4cccc(Cl)c4)cc3n2)c1,-29%,0%
Cc1ncoc1C(=O)NCC1=C(c2ccc(S(C)(=O)=O)cc2)C[C@@H]2CC[C@H]1N2Cc1ccco1,-5%,-7%
C[C@]12CC[C@H](O)CC1=CCC1C2CC[C@@]2(C)C1CC[C@@H]2NCc1ccccc1 (stereo not given in full),-22%,-3%
C1=CC2=NC34CCCCC3CC3=C(CCCC3)N4C2=CC1=NC1CCCCC1 (stereo not given),28µM*,-10%
C[C@@H]1CN([C@@H](C)CO)C(=O)CCCn2nncc2CO[C@H]1CN(C)Cc1cccnc1,-6%,0%
Cc1cccc(C)c1-n1nnnc1C(c1ccnc2ccccc12)N1CCN(c2ccccc2F)CC1 (stereo not given),-21%,4%

# An excerpt; rates above refer to the full screens.
